Source: PubChem (National Center for Advancing Translational Sciences (NCATS))
D2 PAM: potentiates the human D2 dopamine receptor allosterically; P14416; DiscoveRx D2 beta-arrestin cells, luminescence, 90 min; 100% = 57 uM dopamine signal; potentiation, % (no concentration beside the values); 360,000 compounds, 0.23% hits; AID 624464; active = potentiation of 50% or more; inconclusive = 30% to 50%; inactive = 30% or less;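 also: compound concentration not given in the record; tested on top of an EC20 dose of dopamine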
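PathHunter D2 cells, attached overnight at 37 deg C, received compound in DMSO plus dopamine at EC20 (50 nM final) for 90 min at 37 deg C. Beta-arrestin recruitment was read as luminescence after 1 h with detection reagent at ambient temperature.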
TRPML1 ag: agonists of human TRPML1 channel; TRPML1-expressing cells, Ca2+ dye fluorescence, FDSS; host cell line not named in the record; reference of the full effect not given here; 410,000 compounds, 0.12% hits; activation, % (test concentration not listed); AID 624414; in the data active = activation above about 50%; inconclusive = about 30% to 50%; inactive = below about 30%; also: 0% is about no effect; the text of the record puts the active cut at 80%
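Agonist activity was taken from a 110 s kinetic Ca2+ dye read on the FDSS after pinning compounds onto TRPML1-DL cells. The cells were seeded at 1,500/well with Tet inducer, incubated about 16 h, then dye-loaded at room temperature.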
D2 agonist: agonists of human D2 dopamine receptor (beta-arrestin); P14416; DiscoveRx PathHunter D2 beta-arrestin, luminescence, 90 min; 100% = 57 uM dopamine signal; activation, % (concentration not given with the values); 360,000 compounds, 0.084% hits; in the data active = activation above about 40%; inconclusive = about 15% to 40%; inactive = below about 15%; also: the text of the record calls up to 30% inactive
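Agonist mode: compounds alone added to overnight-plated D2 PathHunter cells for 90 min at 37 C, with 57 uM final dopamine (EC100) defining full response. Beta-arrestin recruitment detected by chemiluminescent reagent, read after 1 h at ambient temperature.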
Six1-Eya2 blk: blocks human Six1 binding to Eya2. Q15475+O00167. AlphaScreen GST-Six1/His-Eya2 binding, biochemical; active compounds read low; control for the full effect not named in the record. activity change, % (no concentration beside the values). 360,000 compounds, 0.56% hits; in the data active = activity change below about -65%; inconclusive = about -30% to -65%; inactive = above about -30%; also: % is scaled to controls: 0 for no effect and ±100 for the full control effect
Target sequence (O00167 whole entry, looked up): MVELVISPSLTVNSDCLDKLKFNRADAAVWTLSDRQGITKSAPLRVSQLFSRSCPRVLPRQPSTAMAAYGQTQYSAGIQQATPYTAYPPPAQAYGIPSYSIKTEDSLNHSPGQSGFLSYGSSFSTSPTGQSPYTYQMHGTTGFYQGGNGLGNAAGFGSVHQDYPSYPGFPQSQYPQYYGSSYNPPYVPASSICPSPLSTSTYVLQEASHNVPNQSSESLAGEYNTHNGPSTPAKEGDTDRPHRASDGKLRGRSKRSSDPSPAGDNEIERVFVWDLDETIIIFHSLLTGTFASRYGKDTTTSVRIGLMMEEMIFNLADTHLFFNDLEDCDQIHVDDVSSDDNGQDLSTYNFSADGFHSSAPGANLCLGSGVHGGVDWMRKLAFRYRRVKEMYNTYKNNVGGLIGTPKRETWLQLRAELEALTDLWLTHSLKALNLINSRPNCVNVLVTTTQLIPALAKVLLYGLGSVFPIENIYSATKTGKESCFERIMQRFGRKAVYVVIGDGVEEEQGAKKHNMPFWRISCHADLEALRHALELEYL
Target sequence (Q15475 whole entry, looked up): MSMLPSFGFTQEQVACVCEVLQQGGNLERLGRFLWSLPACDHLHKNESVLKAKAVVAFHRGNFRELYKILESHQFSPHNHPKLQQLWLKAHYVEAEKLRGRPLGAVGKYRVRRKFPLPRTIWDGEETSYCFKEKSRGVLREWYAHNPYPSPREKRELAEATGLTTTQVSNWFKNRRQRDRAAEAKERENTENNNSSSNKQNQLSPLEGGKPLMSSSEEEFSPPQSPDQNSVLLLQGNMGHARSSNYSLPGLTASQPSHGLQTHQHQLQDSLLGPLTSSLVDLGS
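Six1/Eya2 binding was read as AlphaScreen signal after compounds were pinned into GST-Six1 plus His-tagged Eya2 (5X stock 250/500 nM) in pH 8.0 Tris/NaCl/TCEP buffer, beads added, then incubated 1 h, 37 C, dark.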
PINK1 expr mod: modulators of PINK1 expression; PINK1 immunofluorescence, high-content cytometry, 24 h; AID 624263; 410,000 compounds, 0.2% hits; Potency, µM (titrated, usually from 76.6 µM), for inactives: at the highest dose activation (PINK1 increase), hits mostly activators; active = well fitted activation curve with a large enough effect; inconclusive = small, poorly fitted or top-dose-only effect; inactive = flat fitted curve, though single readings scatter; cell line not stated here;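 also: potency is read from the fitted curve at half-maximal effect; % of control where 0% means no effect; nearly all actives have a fitted effect of over 65% in size; a mitochondrial uncoupler was the plate control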
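A stable cell line was treated with compounds at 5 concentrations for 24 hours, with CCCP as control. PINK1 levels and mitochondrial localization were measured by immunofluorescence with mitochondrial, cell and nuclear markers after fixation, read by laser-scanning cytometry.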
CtBP-E1A inh: blocks the CtBP interaction with E1A. AID 651724. AlphaScreen GST-E1A/His-CtBP binding, 1536-well; active compounds read low; control for the full effect not named in the record. activity change, % (test concentration not listed). 340,000 compounds, 0.49% hits; in the data active means activity change below about -65%; inconclusive means about -30% to -65%; inactive means above about -30%; also: % is scaled to controls: 0 for no effect and ±100 for the full control effect
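Homogeneous bead-based format: GST-tagged E1A captured on glutathione donor beads, His-tagged CtBP on nickel acceptor beads; compounds precede bead addition by 2 h at 37 °C.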
Starred values were filed as active, the others as inactive; ? = inconclusive; · = not tested or not shown; & = joins results of further samples; [ ] = dose if it differs, or a comment.

SMILES	D2 PAM	TRPML1 ag	D2 agonist	Six1-Eya2 blk	PINK1 expr mod	CtBP-E1A inh
Cc1cccc(NC(=O)c2ccc(S(=O)(=O)N3CCOCC3)cc2)n1	-3.0	5.0	-4.1	5.0	-0.4%	-6.5
O=C(Nc1ccncc1)c1cc(-c2ccccn2)nc2ccccc12	-7.1	-1.1	4.6	3.4	14.6%	-2.6
COc1ccc(N(CC(=O)NCC2CCCO2)C(=O)CCC(=O)Nc2nccs2)cc1 (stereo not given)	-14.8	0.0	-8.2	1.6	-0.3%	18.0
O=c1cc(CSc2nnnn2-c2ccccc2)[nH]c2[nH]n(-c3ccccc3)c(=O)c12	-17.3	-0.5	-4.0	-20.2	0.7%	13.6
COc1ccc(-c2c(C(=O)c3ccccc3)[nH]c(N)c2C(=O)NC2CC2)cc1OC	·	-0.9	·	-17.8	0.9%	-24.8
CCC(=O)Nc1ccc(-c2csc(C)n2)cc1	-5.4	1.1	-1.1	1.0	-0.3%	0.1
[O-]/[N+](=C\c1ccccc1)c1ccccc1	-9.5	-0.5	-0.9	7.2	2.7%	9.6
COc1ccc(N2CCN(c3nc4ccccc4nc3NS(=O)(=O)c3ccccc3)CC2)cc1	-1.5	0.5	1.8	-13.4	-2.4%	-25.7
CC1(C(=O)NS(=O)(=O)c2cccc(F)c2)CCN1C(=O)c1ccccc1CCc1ccccc1 (stereo not given)	6.5	0.7	3.1	25.5	2.7%	31.9
CCN(CC)C(=O)C1=C(C)N(Cc2ccc(F)cc2)C(=O)C(CC(=O)NCC2CCCCC2)C1 (stereo not given)	·	·	-2.4	-1.5	0.4%	3.1
O=C(CCc1nc2ccccc2s1)OCc1ccccc1	-8.3	0.8	-1.5	50.5	0.2%	25.1
O=C(NCc1ccccc1)c1ncn(Cc2ccccc2)c1C(=O)NCc1ccccc1	-1.5	0.7	-5.4	-7.9	1.8%	4.9
CCC1CCCCN1C(=O)CSc1nc(N)cc(N)n1 (stereo not given)	-14.5	0.0	2.2	-1.0	0.1%	-12.5
CCn1c(=S)sc2c(=O)n(-c3ccccc3)c(SCC(=O)NCc3ccco3)nc21	-1.0	1.5	-1.1	-2.8	4.2%[38.3 µM]	-3.0
Oc1ccccc1N1CCN(CC(O)COCc2ccccc2Cl)CC1 (stereo not given)	-24.3	0.9	0.3	-7.5	5.8%	·
CCN(CC)S(=O)(=O)c1cc(NC(=O)c2ccc3c(c2)NC(=O)C(C)S3)ccc1C (stereo not given)	2.6	3.8	?	-6.3	2.7%	0.2
CC(=O)c1c(C)[nH]c(C(=O)OCC(=O)NCc2cccs2)c1C	-33.3	-0.3	0.1	-0.7	2.3%	16.0
COC(=O)CCN(C(=O)c1ccc(Cl)c([N+](=O)[O-])c1)c1ccccn1	-15.6	-1.1	-5.5	3.0	-0.3%	·
O=C(c1ccco1)N1CCN(C(=O)c2cc(-c3ccccc3F)no2)CC1	-3.0	-0.4	0.7	5.6	1.1%	-2.5
C[C@H](CO)N1C[C@H](C)[C@H](CN(C)Cc2cccc(C(F)(F)F)c2)OCc2ccccc2-c2c(n(C)c3ccccc23)C1=O	·	·	-1.4	0.8	1.1%	4.2
COc1cccc(CNC2CCCc3ccccc32)c1OC (stereo not given)	-10.7	-0.6	-0.7	-2.4	1.5%	5.8
COCCN1C[C@@H](CO)O[C@@H](n2cnc3c(NCc4ccc(F)cc4)ncnc32)C1	4.8	-0.1	7.6	1.6	0.7%	5.7
Cc1cc(Cl)ccc1-n1c(-c2cccnc2)n[nH]c1=S	-13.3	0.1	-7.8	5.9	0.5%	-20.0
Cc1ccccc1S(=O)Cc1ccc(C(=O)NC2CCN(Cc3ccccc3)CC2)o1 (stereo not given)	-33.0	0.3	-4.1	-0.7	-1.4%	2.3
O=C(c1cccs1)N1CC=C(c2ccccc2)CC1	-3.4	-0.4	-3.1	-3.2	-0.9%	·
O=C(COc1ccc(Cl)cc1)NCCCn1ccnc1	-14.2	-0.8	-0.3	9.3	-0.6%	22.6
Cc1nc2ncnn2c(C)c1CCC(=O)N1CCCCC1	2.9	0.4	-1.7	7.2	-0.9%	0.8
CCOCCCNC(=O)c1cn2c3c(ccc(Cl)c3c1=O)OC(C)C2 (stereo not given)	-4.6	1.1	0.4	-12.1	-2.5%	-7.6
O=c1c2ccccc2cnn1Cc1cccc(Br)c1	-3.4	2.5	0.0	13.7	1.8%	0.3
Cc1cc(Nc2nc3ccccc3nc2Cl)n(-c2ccccc2C)n1	0.6	1.0	0.0	28.0	·	5.7
Cc1cc(C)c(C(=O)OCC(=O)NC(=O)c2ccccc2)c(C)c1	19.2	0.4	-1.9	0.1	?	1.2
CC1(C)Cc2c(cnn2-c2ccc(F)cc2)C(NC(=O)C2=NNC(=O)CC2)C1 (stereo not given)	-5.4	0.4	-2.0	-1.7	0.0%	1.7
CCOC(=O)c1csc(NC(=O)c2ccc3c(c2)OCCO3)n1	-1.2	-0.3	-3.9	10.6	1.1%	2.3
CCn1c(SC(C)C(=O)O)nnc1-c1cccnc1 (stereo not given)	1.3	-0.1	-1.4	1.4	5.6%[38.3 µM]	1.0
CCN(CC)CCCNC(=O)C1c2ccccc2C(=O)N(C)C1c1ccc(OC)cc1 (stereo not given)	-21.5	-0.1	-0.9	-1.7	?	14.3
CCCCCCC(=O)Nc1ccc(C(=O)N/N=C/c2cccnc2)cc1	4.3	-0.4	-1.1	-3.9	-0.2%	3.3
Cn1c(/C=C/c2cccc([N+](=O)[O-])c2)nc2ccccc2c1=O	3.4	3.1	-4.4	1.5	3.2%	·
Cc1ccc(NC(=O)CCOc2ccccc2C)cc1F	-7.9	0.5	0.9	4.4	7.4%	-17.3
O=C(COC(=O)c1ccccc1O)NCc1ccccc1Cl	-3.8	-1.3	2.1	-4.5	4.0%	·
CCCOC(=O)C1C2C=CC(C2)C1C(=O)OCC(=O)c1ccccc1 (stereo not given)	1.7	1.3	-2.1	9.1	-2.8%[38.3 µM]	9.6

Sorted by value in Six1-Eya2 blk (ascending): some entries from above
Compound | D2 PAM | D2 agonist | Six1-Eya2 blk | PINK1 expr mod | CtBP-E1A inh
CCOCCCNC(=O)c1cn2c3c(ccc(Cl)c3c1=O)OC(C)C2 (stereo not given) | -4.6 | 0.4 | -12.1 | -2.5% | -7.6
O=C(COC(=O)c1ccccc1O)NCc1ccccc1Cl | -3.8 | 2.1 | -4.5 | 4.0% | ·
COCCN1C[C@@H](CO)O[C@@H](n2cnc3c(NCc4ccc(F)cc4)ncnc32)C1 | 4.8 | 7.6 | 1.6 | 0.7% | 5.7

(cont.)
SMILES	D2 PAM	TRPML1 ag	D2 agonist	Six1-Eya2 blk	PINK1 expr mod	CtBP-E1A inh
O=C(CCN1CCN(c2ccccc2)CC1)Nc1ccccc1F	-18.1	-0.3	?	-3.6	0.1%	-0.3
CSCC(=O)N1CCCC(CNC(=O)c2ccc(-c3ccccc3)cc2)C1 (stereo not given)	-6.8	-0.5	-1.4	-9.0	2.9%	-4.6
CCc1c(C)c2ccc(OCC(N)=O)cc2oc1=O	-4.8	0.1	-0.6	-6.0	2.3%	6.7
CC(C)(C)c1ccc(-c2c(C(=O)O)c(C(=O)O)c3n2CSC3)cc1	1.3	1.3	0.5	-3.2	-2.1%	-2.1
CC(C)(CNCc1ccccc1)NS(=O)(=O)c1ccccc1	-16.0	0.6	-1.4	1.4	-2.3%	-4.3
CCCCCOc1ccc(C(=O)NC(C(=O)O)C(C)C)cc1 (stereo not given)	-8.7	0.3	-0.9	3.3	-7.7%[38.3 µM]	13.2
CCOC(=O)c1ccc(Cn2cnc3ccccc3c2=O)cc1	6.4	0.5	-0.2	-10.7	3.2%	-3.4
CCN(C(=O)COC(=O)c1c(C)nn(-c2ccccc2)c1Cl)c1c(N)n(Cc2ccccc2)c(=O)[nH]c1=O	-7.0	1.0	-1.9	-0.1	1.5%	0.1
COc1ccccc1CNC(=O)CSc1nnc2c(Cl)cc(C(F)(F)F)cn12	5.2	-0.8	6.8	3.3	0.1%	11.6
O=C(COC(=O)c1ccc(NS(=O)(=O)c2ccc3c(c2)OCCO3)cc1)NC1CC1	-1.2	-0.2	-0.2	9.7	1.2%	-1.6
CSc1ncc(Cl)c(C(=O)Nc2ccc(S(=O)(=O)Nc3nccc(C)n3)cc2)n1	-1.3	0.5&-0.7	-8.7	-4.0	-1.0%&-0.5%	2.0
O=C(c1ccc(S(=O)(=O)Nc2ccccc2)cc1)N1CCCC(C(F)(F)F)C1 (stereo not given)	-32.1	20.9	-3.5	-1.3	-1.3%	16.3
CCCCn1[nH]c(-c2ccccc2)cc1=O	-28.4	0.6	-1.2	-0.9	2.1%	2.0
CCCNC(=O)C(Cc1ccc(C(F)(F)F)cc1)NC(=O)c1ccc(C#N)cc1 (stereo not given)	-14.9	-0.7	-0.2	-1.5	4.2%	9.8
O=[N+]([O-])c1nc2ccccc2[nH]1	-14.2	-0.3	-7.1	8.8	0.7%	-3.6
Cc1cc(C)c(C#N)c(N2CCCC(C(N)=O)C2)n1 (stereo not given)	-1.5	-0.8	-2.1	1.6	0.6%	7.5
Cc1cc(C)cc(N=C2NC(=O)/C(=C/c3cccs3)S2)c1	-21.2	2.5	-8.9	-4.7	3.1%	·
O=c1c2ccccc2nc(COc2ccccc2)n1/N=C/c1c[nH]c2ccccc12	9.4	2.8	3.0	2.4	?	1.7
COC(=O)[C@H](CC(C)C)NC(=O)Cn1cnc2c(NCc3ccccc3)ncnc21	1.2	-0.7	-2.2	-20.1	2.1%	3.6
O=C(Nc1ccccc1C(=O)NCc1ccc(Cl)cc1)c1ccco1	-17.8	1.5	-1.5	7.3	6.0%	-20.0
CCCn1c(SCC(=O)Nc2cc(Cl)ccc2OC)n[nH]c1=O	-16.9	1.2	3.4	3.6	-0.3%	-2.2
Cc1nn(CC(C)C)c(=S)[nH]c1=O	-14.9	0.4	-4.0	3.9	1.2%	4.2
CCOC(=O)c1ncn2c1[C@@H]1CCNC1C(=O)c1cc(OC)ccc1-2 (stereo not given in full)	-17.3	-0.2	-1.7	-2.8	0.0%	5.4
CCN1CCN(Cc2ccc(NC(=O)c3ccc(C)c(NC(=O)c4cccc5[nH]ccc45)c3)cc2C(F)(F)F)CC1	-13.6&-21.2	0.4&0.4	-0.7&2.2	-12.7&-10.4	1.4%&-0.2%	-10.7&-20.3
Cc1ccc(NS(=O)(=O)N(C)C)cc1	-28.3	-0.7	-3.3	12.8	-0.2%	0.1
O=c1cc(CN2CCN(Cc3ccccc3)CC2)c2cc(Cl)ccc2o1	-47.1	1.3	-7.6	-1.7	-0.8%	1.8
CC(C)C(=O)Nc1cccc(C(=O)NCc2ccc3c(c2)OCO3)c1	-10.9	0.2	-2.3	4.8	-0.5%[38.3 µM]	1.5
C[C@@H]1CN([C@@H](C)CO)C(=O)c2cc(NC(=O)Nc3cccc4ccccc34)ccc2O[C@@H](C)CCCCO[C@H]1CN(C)C(=O)c1ccccc1	1.5	-0.2	2.8	-6.4	4.5%	5.9
COc1cc(CN2CCN(S(=O)(=O)c3ccc(F)cc3)CC2)cc(OC)c1OC	-15.2	-0.1&-0.1	-0.1	-1.5	2.3%[38.3 µM]	13.9
O=C(CCNC(=O)c1ccc([N+](=O)[O-])cc1)N/N=C/c1ccc(F)cc1	-1.8	0.9	-0.6	7.1	0.9%	·
